# Source: PubChem (several laboratories)
# RecA splice inh – Mtb RecA intein splicing inhibitors, primary screen, biochemical, fluorescence, HTS. cell-free RecA intein splicing. inhibition, %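 (about 9 µM by stock and volumes)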. 290,000 compounds, 0.75% hits; in the data active means inhibition above about 30%; inconclusive means no clear call, values can overlap the other calls;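 further: 0% = vehicle wells and 100% = reference inhibitor control wells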
# Target sequence (P9WHJ3 whole entry, looked up, canonical isoform): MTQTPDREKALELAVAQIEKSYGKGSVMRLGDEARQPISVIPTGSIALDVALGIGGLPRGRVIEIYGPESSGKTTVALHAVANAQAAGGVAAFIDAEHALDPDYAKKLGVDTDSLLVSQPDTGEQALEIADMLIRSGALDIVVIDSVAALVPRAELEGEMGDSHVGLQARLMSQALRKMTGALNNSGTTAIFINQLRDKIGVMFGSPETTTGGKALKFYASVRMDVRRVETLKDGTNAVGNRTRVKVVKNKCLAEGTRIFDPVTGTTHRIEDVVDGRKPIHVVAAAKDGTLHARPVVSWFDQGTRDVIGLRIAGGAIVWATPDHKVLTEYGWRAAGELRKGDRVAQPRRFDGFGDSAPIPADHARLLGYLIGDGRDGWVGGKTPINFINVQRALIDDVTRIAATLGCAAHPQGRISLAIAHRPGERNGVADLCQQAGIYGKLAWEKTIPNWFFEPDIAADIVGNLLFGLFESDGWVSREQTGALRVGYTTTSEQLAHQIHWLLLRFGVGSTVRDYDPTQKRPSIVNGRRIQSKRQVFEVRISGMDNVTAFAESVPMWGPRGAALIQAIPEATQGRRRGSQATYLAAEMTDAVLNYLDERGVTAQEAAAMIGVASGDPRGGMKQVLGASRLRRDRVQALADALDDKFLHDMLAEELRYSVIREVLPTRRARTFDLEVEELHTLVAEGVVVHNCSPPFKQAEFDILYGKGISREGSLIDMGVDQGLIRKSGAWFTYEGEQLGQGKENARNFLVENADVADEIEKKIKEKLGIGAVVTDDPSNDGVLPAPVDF
# Mtb H37Rv – M. tuberculosis H37Rv growth inhibitors, H37Rv strain (AID 1626). M. tuberculosis H37Rv growth inhibition; higher % means a stronger effect. inhibition, % at 10 µM, or IC50 in µM where a hit was titrated. 220,000 compounds, 0.95% hits;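 active means confirmed in a dose series; inconclusive means inhibition above 80% but not taken into the dose series; inactive means below 80% or under 30% at every dose of the series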;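 further: bacteria incubated seven days before Alamar blue readout; 0% = bacteria only wells and 100% = bacteria with antibiotic wells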
# Arbovirus anti – antivirals against arbovirus infection, primary screen, cell-based, full library, 10K replicate subset | arbovirus infection cell-based antiviral screen | inhibition, % at 10 µM | 200,000 compounds, 0.37% hits | AID 1251, 2008;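 active means inhibition from about 30%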;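 further: bluetongue infection of BSR cells; cell survival read as ATP light after 72 h; 0% = infected wells without compound and 100% = uninfected wells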
# Mtb betalactam – beta-lactam sensitization of Mtb H37Rv, H37Rv; M. tuberculosis H37Rv growth with meropenem, percent inhibition; hits of this screen are not shown here; AID 434955, 2010; inhibition, % at 25 µM; 330,000 compounds, 0.27% hits;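 active means about 74% or more and at least 40 points above the plate without the antibiotic, then above 30% in a dose series; inconclusive means first-round hits that could not be retested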;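 further: growth measured after seven days incubation then overnight dye step; 0% = bacteria only wells and 100% = bacteria with antibiotic; twin plates without the antibiotic show which effects depend on it; some results filed as inactive read as strong as hits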
# YopH PTP inh – YopH tyrosine phosphatase inhibitors, primary screen, biochemical, fluorescence Ex485/Em525. 140,000 compounds, 0.16% hits. inhibition, %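 (about 10 µM by stock and volumes)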. AID 898, 2007;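 active means inhibition of 50% or more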;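 further: controls were vehicle for no effect and minimum signal wells for full effect; inactives centre near -20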
# Arbovirus anti repeat – recorded beside Arbovirus anti, whose call it bears; inhibition, %; measured here: 10K subset replicate screen; many hits read low in the repeat;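 first of two repeat runs on a subset; 0% = infected and 100% = uninfected wells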
# * = called active by the depositor; ? = inconclusive; nt = no result given. A portion of the library; the hit share may differ from the screen's.
SMILES,RecA splice inh,Mtb H37Rv,Arbovirus anti,Mtb betalactam,YopH PTP inh,others
N#CC1=C(N)Oc2ccc3ccc(O)cc3c2C1c1ccsc1 (stereo not drawn),18,7%,-38,nt,-15,
Cc1nn(Cc2c(F)c(F)c(F)c(F)c2F)c(C)c1NC(=O)c1nn(C)cc1Br,1.0,nt,nt,-6,nt,
O=C(O)CNS(=O)(=O)c1ccc(F)cc1,1.7,-13%,3,-5,-11,Arbovirus anti repeat=1
CC(C)(C)NC(=O)C(c1c[nH]c2ccccc12)N(C(=O)Cn1nnc(-c2ccc(F)cc2)n1)c1cccc(O)c1 (stereo not drawn),7.3,73%,-24,93,-28,
COc1cccc(C2CC(c3cccc(Br)c3)n3ncnc3N2)c1 (stereo not drawn),-5.3,-5%,-14,?,-9,
O=C(Nc1ccc(C2=NCCN2)cc1)c1ccc(C(=O)Nc2ccc(C3=NCCN3)cc2)c(Cl)c1,1.5,?,nt,100,nt,
CC(C)=CC(=O)OCC(=O)Nc1ccccc1Cl,-1.5,-3%,-2,-9,-26,
COc1ccc(NC(=O)CSc2nc(C3CC3)nc3ccccc23)c(OC)c1,0.9,nt,nt,1,nt,
O=C(CSC1CC(=O)N(CCc2ccccc2)C1=O)Nc1ccc(Cl)cc1 (stereo not drawn),-0.8,4%,0,-2,-24,
Cc1cccc(NC(=O)CSc2nc3ccccc3nc2N2CC(C)OC(C)C2)c1 (stereo not drawn),2.4,nt,nt,3,nt,
CCn1c(SCC(=O)Nc2ccc3c(c2)c2ccccc2n3CC)nnc1-c1ccco1,13,nt,11,0,-14,
COc1ccc(N2CCN(C(=O)c3cccc(N4C(=O)C5CC=CC(C)C5C4=O)c3)CC2)cc1 (stereo not drawn),nt,nt,10,0,-45,
Cc1ccc(C(=O)C(OC(=O)CNS(=O)(=O)c2ccccc2)c2ccccc2)cc1 (stereo not drawn),5.0,-3%,-6,8,-38,
COc1ccc(/C=N/Nc2nc(-c3ccc(C)cc3)c(NC(C)=O)s2)cc1,4.4,-8%,nt,nt,nt,
O=C(CSc1nc2ccc(Cl)cc2o1)NCc1ccc2c(c1)OCO2,3.2,17%,7,4,8,
O=[N+]1C2=C(CCCC2)N([O-])C12CCCC2,-0.9,2%,5,1,-45,
COc1ccc(OCC(=O)Nc2cccc3ncccc23)cc1,3.7,6%,-2,4,-26,
CCC(Sc1nnnn1C)C(=O)Nc1ccc(C(C)=O)cc1 (stereo not drawn),-2.6,-6%,2,0,-13,
Cc1ccc(-c2csc(N3CCC[C@@H]3C(=O)NCCn3c(-c4ccncc4)nc4ccccc43)n2)cc1,6.6,nt,nt,68,nt,
Cc1cccc(C)c1NC(=O)C(c1ccc([N+](=O)[O-])cc1)N(C)C(=O)c1ccccn1 (stereo not drawn),2.0,1%,-2,0,-18,
CC1=C(C)CC2(SC1)C(=O)N(c1ccccc1)N=C2N (stereo not drawn),76*,3%,1,6,nt,
C/C=C/c1ccc(OCCCCn2cncn2)c(OC)c1,nt,7%,1,-6,12,
Cc1cc(C)c2nc(N3CCC(C(=O)NCCCN4CCCCC4)CC3)sc2c1,-0.7,0%,-30,-12,18,
c1ccc(CSc2nnc3ccc(-c4ccco4)nn23)nc1,-2.0,0%,0,-6,nt,
COc1ccc(CCNC(=O)c2c(-c3ccccc3Cl)noc2C)cc1,1.8,-4%,-2,-4,-8,
COC(=O)C(Cc1ccc(O)cc1)NC(=O)c1ccccc1OC (stereo not drawn),-1.0,0%,2,-5,-17,
NC(=O)c1ccccc1NC(=O)/C=C/c1c(Cl)cccc1Cl,-4.2,9%,1,-1,-28,
CCCN1CCN(C(=O)Cn2cccc2C(=O)c2ccccc2)CC1,-0.6,0%,4,-3,-21,
CN(C)CC1CCCCC1=O (stereo not drawn),-3.2,-1%,nt,-5,nt,
Cc1ccc(NC(=O)CN(C)C(C)C(=O)Nc2ccc(S(=O)(=O)N3CCCC3)cc2)cc1 (stereo not drawn),-4.1,nt,nt,-4,nt,

# Ordered by count of non-hydrogen atoms (largest number first): part of the list above.
SMILES,RecA splice inh,Mtb H37Rv,Arbovirus anti,Mtb betalactam,YopH PTP inh,others
Cc1ccc(-c2csc(N3CCC[C@@H]3C(=O)NCCn3c(-c4ccncc4)nc4ccccc43)n2)cc1,6.6,nt,nt,68,nt,
N#CC1=C(N)Oc2ccc3ccc(O)cc3c2C1c1ccsc1 (stereo not drawn),18,7%,-38,nt,-15,
c1ccc(CSc2nnc3ccc(-c4ccco4)nn23)nc1,-2.0,0%,0,-6,nt,
C/C=C/c1ccc(OCCCCn2cncn2)c(OC)c1,nt,7%,1,-6,12,
CC(C)=CC(=O)OCC(=O)Nc1ccccc1Cl,-1.5,-3%,-2,-9,-26,

# Later entries.
SMILES,RecA splice inh,Mtb H37Rv,Arbovirus anti,Mtb betalactam,YopH PTP inh,others
O=[N+]([O-])c1cc(Cl)ccc1Nc1ccccc1,3.4,nt,nt,-5,nt,
Cc1ccccc1C(=O)NNC(=O)C1CCCN(c2ncccn2)C1 (stereo not drawn),0.3,-8%,3,-6,-33,
CC(C)CCNC(=O)C(c1ccco1)N(Cc1ccccc1)C(=O)c1snc(C(N)=O)c1N (stereo not drawn),-0.4,-4%,2,-4,-3,
Cc1c(C=O)c2ccccc2n1CC(=O)N1CCc2ccccc2C1,1.1,0%,6,0,-24,
O=C1/C(=C\c2ccccc2Cl)SC(=S)N1CCC(=O)N1CCCc2ccccc21,-3.3,78%,-37,21,-1,
CN(CC(=O)Nc1cccc(F)c1)C(=O)CCc1nc2cc(S(=O)(=O)N3CCOCC3)ccc2n1C,-1.2,nt,nt,-16,nt,
CCOC(=O)N1CCC(NC(=O)CCc2nc(-c3ccccc3F)no2)CC1,-2.2,-4%,1,2,-32,
CCOC(=O)c1sc(NC(=O)CSc2nnc(C)s2)c(C(=O)OCC)c1C,-0.5,-2%,1,-8,-45,
O=C(CCC(=O)N1CCOc2ccccc21)Nc1ccc(F)cc1F,0.5,nt,nt,-2,nt,
Cc1ccc(C(=O)N2CC(C)CC(C)C2)cc1NC1=NC2CS(=O)(=O)CC2S1 (stereo not drawn),1.4,nt,nt,-1,nt,
Cc1cccc(OCCNc2cc(N3CCN(C)CC3)ccc2[N+](=O)[O-])c1,-4.0,70%,-13,?,-17,
COc1ccc(-c2nc(CS(=O)(=O)CC(=O)NCCc3ccccc3)c(C)o2)cc1,2.2,nt,nt,-3,nt,
Cc1ccc2c(Cl)cc(Cl)c(OCC(=O)N(C(C)C)C(C)C)c2n1,5.2,7%,1,29,nt,
Nc1nc(-c2cc(O)ccc2[N+](=O)[O-])cc(-c2ccccc2)c1[N+](=O)[O-],-19,nt,nt,2,nt,
CCS(=O)(=O)N1CCC(N2CCC(C)CC2)CC1,-0.5,-4%,nt,-3,nt,
CCOc1cc(N2CCOCC2)c(OCC)cc1NC(=O)COC(=O)c1cccc2ccccc12,-0.7,3%,-1,-1,-4,
Cc1ccc(C(=O)NCCCc2ccccc2)c(Cl)c1,2.5,nt,nt,2,nt,
Cc1cc(C(=O)O)ccc1-n1c(C)cc(C=C2C(=O)c3ccccc3C2=O)c1C,5.9,-3%,-2,4,nt,
O=C(NCCCn1ccnc1)c1ccc(N2CCCCC2)c([N+](=O)[O-])c1,-0.4,-10%,9,-7,nt,
Nn1c(SCc2ccccc2)nc2ccccc21,-1.8,nt,nt,100,nt,
COc1cc(/C=C/c2cccc[n+]2C)ccc1OCC(=O)Nc1ccccc1,-2.6,nt,nt,-2,nt,
O=C(N/N=C/c1ccccn1)c1[nH]c2ccc([N+](=O)[O-])cc2c1-c1ccccc1,18,?,-9,52,nt,
Cn1c(SCC(N)=O)nnc1C1CCN(S(=O)(=O)c2ccccc2C(F)(F)F)CC1,-1.7,8%,1,-8,-17,
O=C(Cn1nnc(-c2ccccc2)n1)NNC(=O)c1cccc([N+](=O)[O-])c1,-0.5,nt,nt,23,nt,
Cc1nnc(NC(=O)Cn2c(=O)sc3ccccc32)s1,0.0,1%,2,-5,-45,
COc1c(C)cc(C(=O)C2CCCN(Cc3cccc(C)n3)C2)cc1C (stereo not drawn),2.0,19µM*,12,94,nt,
COc1ccc(CCN(C)Cc2ccncc2)cc1OC,-0.1,-1%,7,-5,1,
O=C(C1CC1)N1CCN=C1SCc1ccc(F)cc1,1.8,0%,5,-5,-40,
Cc1nnc(N2C(=O)c3oc4ccccc4c(=O)c3C2c2ccco2)s1 (stereo not drawn),0.4,-11%,16,-4,-22,
CCCS(=O)(=O)c1nc(S(=O)(=O)c2ccc(C)cc2)c(N2CCCC(C)C2)s1 (stereo not drawn),-14,nt,nt,12,nt,
Nc1ncnc(SCc2c(F)cccc2Cl)n1,2.0,-10%,nt,5,nt,
CCOC(=O)c1ccc(NC(=O)Nc2ccc(OC)c(OC)c2)cc1,1.2,-4%,0,12,2,
Cc1ccc(NC(=O)CCNS(=O)(=O)c2ccc3[nH]c(=O)oc3c2)cc1F,-2.2,nt,nt,2,nt,
Cc1onc(-c2c(Cl)cccc2Cl)c1COC(=O)c1ccc(Cl)cc1[N+](=O)[O-],nt,-2%,nt,-11,nt,
O=S(=O)(/N=C(/Sc1ccccc1)c1ccccc1)c1ccccc1,3.4,-2%,0,6,-15,
CCC(=O)Nc1ccc2oc(-c3cccc(C)c3)nc2c1,nt,18%,15,5,-17,
CCN(CC)C(=O)N1CCN(C(=O)N(CC)CC)CC1,3.8,2%,5,1,nt,
CCn1cc(/C=C(\NC(=O)c2cc(OC)c(OC)c(OC)c2)C(=O)NCCCN2CCOCC2)c2ccccc21,1.7,nt,nt,5,nt,
Cn1c(=O)c2c(nc(N3CCNCC3)n2Cc2ccccc2Cl)n(C)c1=O,-2.2,-14%,-2,5,nt,
NC(=O)c1nsc(C(=O)N(c2ccccc2)C(C(=O)NCc2ccc(F)cc2)c2ccc(O)cc2)c1N (stereo not drawn),-4.2,nt,nt,-4,nt,
COC(=O)c1cc(-c2cccc([N+](=O)[O-])c2)c2c(=O)n(C)c(=O)n(C)c2n1,-1.4,nt,nt,7,nt,
CC1(C)CC(C)(c2ccc(O)cc2O)N(c2cccc(Cl)c2)C(=S)N1 (stereo not drawn),2.6,-3%,19,-15,-25,
O=C(NCCC(=O)N1CCCCCCC1)c1ccc(Cl)cc1,2.6,nt,nt,-11,nt,
COC(=O)c1ccc(CS(=O)(=O)c2ccc(C)cc2)cc1,-0.1,-1%,-3,-1,-13,
O=C(NCC1CCCO1)C1CCC(N2C(=O)c3ccccc3C2=O)CC1 (stereo not drawn),1.6,-2%,5,5,-33,
Cc1ccc2c(c1)CCCN2C(=O)c1cc(C)on1,0.1,nt,nt,-10,nt,
O=C(c1cc(-c2cccc(Br)c2)nc2ccccc12)N1CCCC1,7.5,nt,nt,11,nt,
O=C(O)/C(=C\c1ccc(F)cc1)c1ccc(-c2ccccc2)cc1,3.0,nt,nt,8,nt,
CCn1ccnc1[C@@H]1C[C@H]2CN(c3ccccc3OC)C(=O)[C@]23CCCN13,-2.6,-1%,2,-2,nt,
CC(=O)c1cccc(N=c2scc(-c3ccc(S(=O)(=O)N4CCOCC4)cc3)n2CCO)c1,6.5,10%,8,-1,-25,

# Next part
SMILES,RecA splice inh,Mtb H37Rv,Arbovirus anti,Mtb betalactam,YopH PTP inh,others
CCC(=O)Nc1ccc(Cl)c(NC(=S)NC(C)=O)c1,-3.4,0%,-2,-3,nt,
CCOC(=O)Cc1c(C)nc2c(-c3ccccc3OC)c(C)nn2c1C,0.4,-2%,-2,-2,14,
c1ccc2c(c1)oc1c(NCCCn3ccnc3)ncnc12,-1.1,12%,12,-3,-19,
COc1ccc(CCNC(=O)CCN2C(=O)[C@@H]3Cc4ccccc4CN3C2=O)cc1,-2.9,nt,nt,-5,nt,
O=[N+]([O-])c1ccc(S(=O)(=O)Nc2cccc(-c3ccc(N4CCCC4)nn3)c2)cc1,2.1,nt,nt,-1,nt,
c1ccc(-c2nnc3n2CCCC3)cc1,1.7,-5%,7,0,-38,
CCCCNC(=S)N(C)/N=C/c1c(F)cccc1F,2.9,9%,8,-2,-19,
CCc1ccccc1NC(=S)NCc1ccc2c(c1)OCO2,2.5,-8%,-5,9,-18,
CC(C)[C@H]1CC[C@@H](C)C(C(=O)c2ccccc2)C1=O (stereo partly drawn),0.8,8%,1,1,-12,
CC(C)(C)CN1CCN(Cc2nc(-c3ccc(F)cc3)cs2)CC1CCO (stereo not drawn),0.4,nt,nt,-3,nt,
CC(C)(C)NC(=O)CN(C(=O)CS(=O)CC(=O)Nc1ccc(F)cc1)c1cccc(F)c1 (stereo not drawn),0.8,-4%,5,-1,nt,
Cc1cccc(NC(=S)/N=C(\N)Nc2nc(C)c3ccc(C)cc3n2)c1,-0.4,16%,-4,82,-20,
